Mtb hypoxia inh: inhibitors of hypoxia-regulated fluorescent reporter in Mycobacterium tuberculosis. M. tuberculosis hypoxia-regulated fluorescent reporter, fluorescence. fluorescence inhibition, % (test concentration not listed). hit rate 0.1% among 300,000;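 active means 35 to 45% if threefold the growth effect, above 45% if 1.5-fold the growth effect; inactive means the rest, general growth blockers included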;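 further: wells of about 50 µL received 100 nL stock; 0% = vehicle wells and 100% = reference inhibitor wells; whole bacteria with a GFP reporter of the hypoxia response; strong numbers were not always called active; many hits fall short of the cut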
ugtP null kill: growth inhibition of S. aureus ugtP deletion strain | S. aureus RN4220 ugtP deletion, OD600 growth, 16 h; some inactives read as strong as hits | growth inhibition, % (test concentration not listed) | hit rate 0.54% among 330,000;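 active means z-score under -3 and OD600 up to 0.15 on both plates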;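 further: plate controls were untreated wells for no effect and antibiotic for full effect; wells of about 80 µL received 100 nL stock; the first replicate is given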
Sa RN4220 lethal: kills Staphylococcus aureus RN4220. hit rate 0.33% among 330,000. inhibition, % (no concentration beside the values). S. aureus RN4220 growth, OD600, 16 h. AID 1259311;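 active means z-score of -3 or lower and OD600 up to 0.18 on both plates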;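 further: plate controls were untreated cells for no effect and reference antibiotic for full effect; stock transfer was 100 nL into about 80 µL; one replicate is shown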
PrP UTR inh: inhibition of PrP 5' UTR reporter expression. hit rate 0.35% among 340,000. cell-based PrP 5' UTR mRNA reporter, plate reader. inhibition, % (test concentration not listed). AID 488862;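 active means every replicate at 50% or more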;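 further: 0 = median of the neutral control wells; tested in H4 reporter cells; numbers are from one replicate; inactives centre near -14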
BJeLR lethal: BJeLR cell viability loss; BJeLR (HRASV12) viability, CellTiter-Glo ATP luminescence, 48 h; reference of the scale not given here; inhibition, % (test concentration not listed); hit rate 0.17% among 300,000; AID 1554;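 active means replicate mean above 50%; inconclusive means above 50% but judged a plate artefact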;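 further: 50 nL library stock added to about 25 µL; numbers are from one replicate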
Bead autofluor: flagged as autofluorescent in microsphere protease counterscreen. compound autofluorescence counterscreen, microsphere flow cytometry; hits give high values. fluorescence intensity (no concentration beside the values). hit rate 3.1% among 360,000;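 active means at least 3 SD above the mean of all compounds, about 16000 in these data; inconclusive means too few beads counted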;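 further: 100 nL of 1 mM stock went into each well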
Mtb hypoxia inh growth: further read-out of Mtb hypoxia inh, marked with its call; growth inhibition, %; measured here: M. tuberculosis growth (absorbance);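 0% = vehicle and 100% = reference antibiotic; read after six days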
* = called active by the depositor; ? = inconclusive; . = no result given.

SMILES	Mtb hypoxia inh	Mtb hypoxia inh growth	ugtP null kill	Sa RN4220 lethal	PrP UTR inh	BJeLR lethal	Bead autofluor
CCc1cc2c(N[C@@H](Cc3ccccc3)C(=O)O)ncnc2s1	16	5	6	5.7	-31	-4	3512
CCC(=NNC(=O)CSc1ncccn1)c1ccc2c(c1)OCCO2	5	-3	1	3.5	.	.	.
O=C(c1ccoc1)N1CCCC(N2CCN(c3cccc(C(F)(F)F)c3)CC2)C1 (configuration not stated)	2	-1	10	2.6	19	-6	4359
NC(=O)C1CC(=O)N(c2ccc(OCc3ccc([N+](=O)[O-])cc3)cc2)C1 (configuration not stated)	7	-1	4	2.0	-29	-3	3166
CCn1nnnc1SCC(=O)c1ccc(C)cc1C	.	.	3	1.6	-95	2	3955
Cc1nc(NN=Cc2ccccc2)nc(N(C)c2ccccc2)c1[N+](=O)[O-]	6	0	-9	-0.5	.	.	.
O=C(COC(=O)c1ccc(S(=O)(=O)N2CCCC2)cc1)Nc1ccc(Cl)cc1	6	1	7	3.4	-12	.	4177
Cc1nnc2sc(SCC(=O)Nc3ccc(Br)cc3)nn2c1=O	13	3	6	-2.4	-3	-15	4389
CCOC(=O)c1cc(-c2cccc([N+](=O)[O-])c2)n[nH]1	15	10	5	12	-10	-15	3418
COc1cccc(Oc2ccc(C(F)(F)F)cc2NC(=O)c2cccc(F)c2)c1	11	0	10	-8.2	0	14	2511
O=C(O)c1ccc(N=Cc2c(O)ccc3oc4c(c23)CCCC4)cc1	.	.	.	.	-9	-1	4241
Cn1ncc(Cl)c1C(=O)NCc1ccco1	-13	10	4	0.2	-22	10	1856
CC(=O)SCC(C)C(=O)NCc1ccccc1 (configuration not stated)	16	2	4	1.8	-10	4	10395
Cc1[nH]c2ccccc2c1C(=O)C(=O)N1CCN(c2cccc(Cl)c2)CC1	-8	-2	-9	0.0	-8	-4	5901
O=[N+]([O-])c1cccc(/C=N\N=C2c3ccccc3-c3ccccc32)c1O	.	.	.	.	-8	1	2523
O=C(NNC(=O)C12CC3CC(CC(C3)C1)C2)c1ccncc1	9	9	8	2.6	-28	-1	3722
CCN(CC)C(=O)c1sc(NC(=O)c2ccc(C)c([N+](=O)[O-])c2)c(C#N)c1C	.	.	10	4.7	-29	0	3546
Cc1noc(C)c1S(=O)(=O)N1CCC(C(=O)Nc2ccc(Br)cc2)CC1	3	5	-2	2.0	-1	-1	5780
COc1ccc(OC)c(C2/C(=C(/O)c3cnn(-c4ccccc4)c3C)C(=O)C(=O)N2CCN(C)C)c1 (configuration not stated)	8	3	0	2.3	-29	-13	4941
CC(C)(C)NC(=O)C[C@H]1C[C@H](C(=O)N2CCCCC2)[C@@]2(CCc3ccccc3)c3[nH]c4ccc(Cl)cc4c3CCN2C1=O	-9	4	-2	1.0	-22	.	3620
CCOC(=O)C1(Cc2ccccc2)CCN(C2Cc3ccccc3C2)CC1	4	-6	5	7.9	-10	6	4455
CCCN(CCC)C(=S)Nc1cc(C(=O)OC)ccc1C(=O)OC	6	8	8	3.9	-16	1	2241
COc1ccccc1C(=O)NC(=O)COC(=O)c1ncc(Cl)c(Cl)c1Cl	1	3	1	0.9	-9	-3	5795
Cc1ccc2cc3c(=O)n(C)cc(C=O)c3nc2c1	0	1	-12	0.8	-24	.	6101
CC(=O)Nc1ccc(S(=O)(=O)NNC(=O)C(=O)NNc2ccccn2)cc1	13	12	4	3.9	-8	-15	4858
COC(=O)/C(=N/Nc1ccccc1C)N1CCCc2ccccc21	.	.	.	.	-11	4	2059
CSCCC(=O)Nc1ccc(C(C)=O)cc1	-1	14	3	2.9	-35	-16	8819
O=C(C1CC1)N1CCC(c2nc(-c3ccc(S(=O)(=O)NCC4CCCO4)cc3)no2)CC1 (configuration not stated)	2	6	-2	-1.0	15	27	19413*
O=C(CCN1C(=O)/C(=C\c2cccs2)SC1=S)Nc1ccccn1	4	-4	-15	9.8	-20	4	4511
S=C(NC1CCCCC1)N1CCn2cccc2C1c1ccncc1 (configuration not stated)	6	6	12	6.3	-21	-7	3419
COc1ccc(S(=O)(=O)N2CCC(N3CCCCC3)CC2)cc1	.	.	5	-2.3	5	3	4725
O=C(O)CCC(=O)Nc1cccc(-c2nc3ccccc3o2)c1	-14	-11	3	1.7	-6	-5	3646
CC(=O)Nc1ccc(N2C(=O)CSC2c2ccccc2[N+](=O)[O-])cc1 (configuration not stated)	-1	5	3	6.1	0	-5	3417
CCCn1nc(NS(=O)(=O)c2cccc3nonc23)c2cc3cc(C)ccc3nc21	5	-6	0	23	-8	0	4794
CC1CCN(CC(=O)NCc2ccccc2)CC1	15	21	-3	2.1	-33	1	22476*
Cc1ccc(NC(=O)c2cc(S(=O)(=O)N3CCc4ccccc43)cn2C)cc1	.	.	6	-1.1	-12	-3	4760
O=C(COc1ccc([N+](=O)[O-])cc1)NNC(=O)Nc1ccc([N+](=O)[O-])cc1	-6	0	-8	0.1	-2	-10	4576
Cc1ccc(C(=O)COc2cc(O)c3c(=O)cc(-c4ccccc4)oc3c2)cc1	-1	2	-7	5.9	-10	0	3740
CC(C)C(C)NC(=O)COc1nc2ccccc2nc1N(C)C1CCCCC1 (configuration not stated)	3	-1	10	0.6	-28	2	3511
CCOc1ccc(Cl)cc1CNc1nnnn1CC	0	-3	0	2.9	-20	3	3672
CCCC[C@@H]1CN=C(N)N1CCCC	.	.	.	.	-26	-3	3805
COc1cccc(C(=O)NN/C(C)=C/C(=O)C(F)(F)C(F)(F)C(F)(F)F)c1	.	.	.	.	-8	7	7607
CCCCCNC(=O)c1ccc2c(=O)[nH]c3c(C(=O)NCC4CCCO4)sc(=S)n3c2c1 (configuration not stated)	-73	-6	14	20	-12	-1	3518
NC(=S)NN=C(Cc1ccccc1)Cc1ccccc1	21	25	5	16	-25	-17	4762
CCCNC(=O)N1C2CCC1C(C(=O)OC)=C(c1cccc(OC)c1OC)C2 (configuration not stated)	4	9	0	7.4	.	.	.

A different layout for three compounds above.
molecule,Mtb hypoxia inh,Mtb hypoxia inh growth,ugtP null kill,Sa RN4220 lethal,PrP UTR inh,BJeLR lethal,Bead autofluor
CC(C)C(C)NC(=O)COc1nc2ccccc2nc1N(C)C1CCCCC1 (configuration not stated),3,-1,10,0.6,-28,2,3511
CCOc1ccc(Cl)cc1CNc1nnnn1CC,0,-3,0,2.9,-20,3,3672
CCCC[C@@H]1CN=C(N)N1CCCC,.,.,.,.,-26,-3,3805

Just Mtb hypoxia inh growth and PrP UTR inh (7 entries from above):
Compound,Mtb hypoxia inh growth,PrP UTR inh
COc1ccc(S(=O)(=O)N2CCC(N3CCCCC3)CC2)cc1,.,5
CCCNC(=O)N1C2CCC1C(C(=O)OC)=C(c1cccc(OC)c1OC)C2 (configuration not stated),9,.
CCCn1nc(NS(=O)(=O)c2cccc3nonc23)c2cc3cc(C)ccc3nc21,-6,-8
Cc1ccc(NC(=O)c2cc(S(=O)(=O)N3CCc4ccccc43)cn2C)cc1,.,-12
COc1cccc(C(=O)NN/C(C)=C/C(=O)C(F)(F)C(F)(F)C(F)(F)F)c1,.,-8
CC1CCN(CC(=O)NCc2ccccc2)CC1,21,-33
NC(=S)NN=C(Cc1ccccc1)Cc1ccccc1,25,-25

Other compounds follow.
SMILES	Mtb hypoxia inh	Mtb hypoxia inh growth	ugtP null kill	Sa RN4220 lethal	PrP UTR inh	BJeLR lethal	Bead autofluor
N#CCN1CCC/C1=C\[N+](=O)[O-]	-1	4	7	1.2	-14	-6	10412
COC(=O)c1ccccc1NC(=S)NC(NC(=O)COc1ccccc1)C(Cl)(Cl)Cl (configuration not stated)	0	1	-64	6.1	-19	-8	3863
COCc1cc(CN2CCCC2)c(O)c2ncccc12	7	10	-4	3.3	4	0	7511
Cc1cc(OCC(=O)NC2CC(C)(C)NC(C)(C)C2)c(C)cc1Br	13	7	-1	-0.6	-17	-1	5310
COc1cc2c(=O)n(CCC(=O)NCC3CCCO3)c(=O)n(CC(=O)Nc3ccc(C)cc3)c2cc1OC (configuration not stated)	1	-2	-2	2.4	-20	9	4082
Cc1cc(C)n(C(=O)c2cccc(S(=O)(=O)N3CCOCC3)c2)n1	12	6	-2	6.6	-33	12	4136
Cc1cccc(N2C(=O)CC(Sc3nccc(C)n3)C2=O)c1 (configuration not stated)	9	7	12	0.9	-27	-1	3535
O=C(CSc1ccc2ccccc2n1)c1ccc2c(c1)OCO2	3	-2	29	19	-27	1	4578
CC(C)Nc1nnc(SCC(=O)Nc2ccc3c(c2)C(=O)c2ccccc2C3=O)s1	0	2	-6	18	-71	-2	10508
O=c1c(O)c(-c2ccccc2)oc2cc(O)cc(O)c12	.	.	-10	-1.9	-7	.	4083
COc1ccc(C)cc1NC(=O)CCNC(=O)Cn1cnc2ccccc2c1=O	-6	4	14	0.9	-1	10	5934
COc1cc(C=NNC(=O)c2ccccn2)cc2c1OCO2	-4	6	-1	-0.2	.	.	.
O=C(CSc1n[nH]c(-c2cccs2)n1)N1CCCC1	3	-2	3	4.3	-12	.	?
O=C(COC(=O)/C=C/c1cccs1)Nc1nc(-c2ccccc2)cs1	17	5	0	8.9	-21	3	2571
Nc1nnc(C(c2ccccc2)c2ccccc2)s1	.	.	3	-1.1	-9	1	4618

Full records as entered above.
Entry for `O=C(CSc1ccc2ccccc2n1)c1ccc2c(c1)OCO2` = Mtb hypoxia inh = 3; Mtb hypoxia inh growth = -2; ugtP null kill = 29; Sa RN4220 lethal = 19; PrP UTR inh = -27; BJeLR lethal = 1; Bead autofluor = 4578
Entry for `O=c1c(O)c(-c2ccccc2)oc2cc(O)cc(O)c12` = Mtb hypoxia inh = .; Mtb hypoxia inh growth = .; ugtP null kill = -10; Sa RN4220 lethal = -1.9; PrP UTR inh = -7; BJeLR lethal = .; Bead autofluor = 4083

3 entries from above, ordered by length of the SMILES, high to low:
SMILES	Mtb hypoxia inh	Mtb hypoxia inh growth	ugtP null kill	Sa RN4220 lethal	PrP UTR inh	BJeLR lethal	Bead autofluor
Cc1cc(C)n(C(=O)c2cccc(S(=O)(=O)N3CCOCC3)c2)n1	12	6	-2	6.6	-33	12	4136
Cc1cccc(N2C(=O)CC(Sc3nccc(C)n3)C2=O)c1 (configuration not stated)	9	7	12	0.9	-27	-1	3535
O=c1c(O)c(-c2ccccc2)oc2cc(O)cc(O)c12	.	.	-10	-1.9	-7	.	4083

(list continues)
SMILES	Mtb hypoxia inh	Mtb hypoxia inh growth	ugtP null kill	Sa RN4220 lethal	PrP UTR inh	BJeLR lethal	Bead autofluor
COc1cc(NC(=O)COc2cc(O)c3c(c2)OC(C)(C)CC3=O)cc(OC)c1	.	.	8	22	-36	8	5475
O=C(CCCN1C(=O)c2cccc3cccc(c23)C1=O)N1CCN(c2ncccn2)CC1	-4	-3	6	1.7	-17	.	2282
Nn1c(SCC(=O)N2CCCc3ccccc32)nnc1-c1ccc(Cl)cc1	.	.	8	-0.8	-2	0	3767
COc1ccccc1C(=O)C1CCCN(C(=O)C2CCCC2)C1 (configuration not stated)	-8	0	11	3.8	-16	-13	4472
O=C(CNC(=O)c1cccc(F)c1)N/N=C/c1cccc([N+](=O)[O-])c1	.	.	.	.	-2	3	2394
Oc1cccc2ccc(/C=C/c3c(F)cccc3Cl)nc12	0	2	8	-7.9	-66	0	4516
Nc1ccc(C(=O)N/N=C2/CN3CCC2CC3)cc1	.	.	.	.	-14	4	12873

Compound activity: PubChem BioAssay, several laboratories

Not a hit list (roughly 4.1% active in at least one column).
